Source: PubChem
AF4-AF9 inh = inhibitors of AF4 peptide binding to AF9, primary screen, biochemical, AlphaScreen, biotin-AF4 peptide, FLAG-AF9, single point. Protein AF-9 (Homo sapiens), P42568. inhibition, % at 10 µM. 350,000 tested, 0.47% active. AID 651704, 2012;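 active = every replicate reaching a set inhibition limit, whatever the replicate mean, cut at about 25% in these data; inconclusive = mean inhibition reaches that limit but some replicates miss it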;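 also: 0% = plate neutral control median and 100% = total signal loss; the record names both 10 and 1 µM as test concentration; the first replicate is given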
Target sequence (P42568 whole entry, looked up): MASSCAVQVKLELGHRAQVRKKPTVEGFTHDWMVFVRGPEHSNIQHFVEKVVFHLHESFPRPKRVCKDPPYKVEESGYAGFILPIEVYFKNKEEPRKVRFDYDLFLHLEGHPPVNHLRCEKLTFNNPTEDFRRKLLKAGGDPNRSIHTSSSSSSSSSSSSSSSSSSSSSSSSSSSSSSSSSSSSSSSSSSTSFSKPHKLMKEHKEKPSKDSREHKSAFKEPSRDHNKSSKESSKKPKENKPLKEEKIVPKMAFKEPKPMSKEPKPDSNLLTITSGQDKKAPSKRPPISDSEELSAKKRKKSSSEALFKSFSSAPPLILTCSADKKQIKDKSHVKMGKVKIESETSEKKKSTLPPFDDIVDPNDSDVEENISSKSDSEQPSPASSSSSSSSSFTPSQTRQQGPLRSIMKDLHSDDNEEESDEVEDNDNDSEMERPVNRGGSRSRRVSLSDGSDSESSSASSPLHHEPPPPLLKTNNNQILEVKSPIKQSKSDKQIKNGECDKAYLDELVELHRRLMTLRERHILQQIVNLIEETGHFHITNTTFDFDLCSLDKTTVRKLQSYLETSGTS
Beta apoptosis = inhibitors of cytokine-induced beta cell apoptosis, primary screen, luminescence; INS-1E cytokine-induced death, ATP luminescence, 48 h; percent of positive-control rescue, neutral wells zero; protection from apoptosis, % (test concentration not listed); 300,000 tested, 0.8% active;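 active = all replicates at 75% or more, or half of them and the mean; inconclusive = half reach 75% but not the mean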;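 also: 0% = cytokine-treated negative control wells and 100% = positive control rescue; higher means more ATP so stronger rescue from cytokine killing; wells of about 40 µL received 100 nL stock; the first replicate is given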
UCH37 DUB inh = inhibitors of human UCH37 deubiquitinase, primary screen, biochemical, Ub-AMC cleavage, fluorescence. inhibition, % (concentration not given with the values). purified proteasome/UCH37. 330,000 tested, 0.33% active;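 active = mean of two replicates above 20%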;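 also: 0% = compound-free wells with enzyme and 100% = wells lacking proteasome; stock transfer was 100 nL into about 20 µL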
Target sequence (Q9Y5K5 whole entry, looked up): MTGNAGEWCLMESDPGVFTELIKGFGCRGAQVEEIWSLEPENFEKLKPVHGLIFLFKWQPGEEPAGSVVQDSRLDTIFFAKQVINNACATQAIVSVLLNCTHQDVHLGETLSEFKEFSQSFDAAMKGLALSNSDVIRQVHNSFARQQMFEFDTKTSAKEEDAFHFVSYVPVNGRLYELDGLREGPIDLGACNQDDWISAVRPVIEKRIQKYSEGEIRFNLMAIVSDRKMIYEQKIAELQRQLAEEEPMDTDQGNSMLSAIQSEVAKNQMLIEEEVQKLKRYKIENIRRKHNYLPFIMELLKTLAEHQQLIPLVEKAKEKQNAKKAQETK
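Assay system: Proteasome-bound UCH37. Buffer or medium: pH 7.4 Tris-HCl (50 mM) with ovalbumin, ATP-MgCl2, DTT. Incubation: 30 min preincubation with enzyme, 25 min cleavage at room temperature. Measured by: fluorescence, ex 355 nm, em 460 nm. Read-out basis: percent inhibition. Control set: wells without proteasome as full block, compound-free enzyme plus substrate as uninhibited.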
FGF22 binding = binders of human FGF22 protein, primary screen, FGF22 synaptogenesis inhibitor project, biophysical, thermal shift, single point; recombinant FGF22 thermal shift, SYPRO orange fluorescence; percent of sucrose octasulfate shift, DMSO zero; calls only at 9.99 µM; 340,000 tested, 1.5% active; Fibroblast growth factor 22 (Homo sapiens), Q9HCT0;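 active = melting point raised past a set limit in the mean and every replicate; inconclusive = no clear call; three in four hits are not shown here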
Target sequence (Q9HCT0 whole entry, looked up): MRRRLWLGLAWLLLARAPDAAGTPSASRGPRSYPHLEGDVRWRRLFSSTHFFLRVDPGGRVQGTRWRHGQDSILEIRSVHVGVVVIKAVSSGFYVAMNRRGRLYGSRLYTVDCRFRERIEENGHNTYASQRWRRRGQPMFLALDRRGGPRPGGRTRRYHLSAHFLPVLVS
Ecoli growth = E. coli growth inhibition, primary screen, OD600 | 330,000 tested, 0.21% active | Escherichia coli growth, 23 h; hits give low values | OD600 absorbance (concentration not given with the values) | AID 1053175, 2014;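 active = OD600 absorbance below the run mean of sample wells minus 3.6 SD, in any replicate, cut at about 0.56 in these data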;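 also: stock transfer was 300 nL into about 60 µL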
A1 inh = caspase 3/7 activation in MEF A1-2A-BIM cells, primary screen, A1 inhibitor project, cell-based, luminescence, HTS | Caspase-Glo 3/7 luminescence, 3 h; percent of clofoctol response, vehicle zero | caspase activation, % (no concentration beside the values) | 330,000 tested, 0.066% active;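 active = over half of replicate activation scores above 10%, or exactly half above 10 with the replicate mean above 10; inconclusive = replicate mean below 10 yet half the replicates above 10; inactive = over half of replicates below 10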;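 also: wells of about 30 µL received 50 nL stock; many hits fall short of the cut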
T cruzi inh = inhibitors of intracellular T. cruzi growth, primary screen, luminescence, NIH3T3 host cells; T. cruzi beta-gal in NIH3T3, 90 h; inhibition, % (concentration not given with the values); 300,000 tested, 1.4% active; AID 1885, 2009;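 active = mean inhibition across valid replicates above about 55%, limit read from the data; inconclusive = mean below that limit but half or more replicates reach it; inactive = mean below it, under half of replicates reach it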;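 also: signal also drops with host cell toxicity which is not excluded here; 0% = plate median of DMSO wells and 100% = zero luminescence signal; higher percent means less beta-gal luminescence so fewer parasites; stock transfer was 50 nL into about 50 µL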
rRNA inh HTS = reduced GFP signal of wild-type E. coli, primary screen, bacterial rRNA inhibitor project, GFP/RFP fluorescence, OD600, single point; E. coli WT GFP vs humanized-ribosome RFP mutants, 24 h; hits give low values; DMSO median 0, no signal -100; GFP signal change (wild-type ribosome), % (no concentration beside the values); 350,000 tested, 1.6% active;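 active = significant combined selectivity score with lowered wild-type GFP, culture density cut under 30%, mutant RFP and density less affected; inactive = any of these conditions unmet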; also: one replicate is shown; some compounds called inactive have numbers as strong as hits
rRNA inh HTS OD600 = second read-out of rRNA inh HTS, no call of its own (marks repeat the call); OD600 change, %; measured here: OD600 growth;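 optical density of the mix in the first replicate; 0 = DMSO median and -100 = no signal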
rRNA inh HTS RFP = further read-out of rRNA inh HTS, marked with its call; RFP signal change, %; measured here: RFP humanized mutant strains;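 first replicate; 0 = DMSO median and -100 = no signal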
* hit, by the source's call; i = inactive; ? = inconclusive; · = no result given. The list is partial, so the mix of outcomes need not match the whole.

SMILES	AF4-AF9 inh	Beta apoptosis	UCH37 DUB inh	FGF22 binding	Ecoli growth	A1 inh	T cruzi inh	rRNA inh HTS	rRNA inh HTS OD600	rRNA inh HTS RFP
CC(C#N)Sc1nnc(Nc2ccccc2)s1 (centres undefined)	3.7	-6	2.4	·	0.71	-1.5	1	-10	-14	1.7
O=C(COC(=O)c1cc[n+]([O-])cc1)NC(=O)c1ccc(OC(F)F)cc1	1.5	0	0.3	i	0.67	-0.3	·	5	10	-0.2
CCCCn1c(N)c(N(CCC(C)C)C(=O)C2CCCC2)c(=O)[nH]c1=O	-2.2	-14	1.0	i	0.7	-0.9	·	5	8	-2.1
COc1ccc(Cl)cc1S(=O)(=O)N1CCN=C1C	-4.7	-6	4.9	i	0.78	-0.5	-5	4	9	-1.2
CC(=O)c1cccc(NC(=O)CCNS(=O)(=O)c2cccc3nsnc23)c1	·	3	4.6	·	0.67	-0.4	0	·	·	·
Cc1ccc2oc(=O)n(CCOc3ccccc3)c2c1	-2.1	-4	7.6	·	0.72	-1.5	-11	18	3	-0.6
O=C(COC(=O)C1CCCCC1)NCCc1ccccc1	-2.9	·	3.1	i	0.7	·	·	·	·	·
COc1ccc(-c2nn(C)c3sc(C(=O)N4CCOCC4)cc23)cc1OC	·	3	-1.6	·	0.69	-0.3	-10	·	·	·
COc1ccc(NS(=O)(=O)c2ccc(F)cc2F)cn1	2.9	·	1.6	i	0.69	-0.5	-4	9	1	0.1
C/C(=N\NC(=O)c1cc(C)oc1C)c1ccc(N2CCOCC2)cc1	-4.5	-10	·	i	·	0.5	0	-5	17	-3.7
CN(C)S(=O)(=O)c1ccc(NC(=O)CN2C(=O)NC(Cc3ccccc3)C2=O)cc1 (centres undefined)	0.4	-4	0.2	i	0.68	-1.2	·	6	8	1.6
Cc1noc(C)c1COc1ccccc1C(=O)N(C)Cc1ccc(F)cc1	-0.9	·	1.9	i	0.68	·	·	4	10	1.2
COc1ccc(C)cc1S(=O)(=O)N1CCCC(C(=O)NCc2ccccn2)C1 (centres undefined)	-2.0	2	3.3	i	0.69	0.9	13	-1	-14	-3.0
Cc1cccc(/C(N)=N/OC(=O)c2ccoc2C)c1	2.9	38	3.1	i	0.67	1.6	20	3	5	-2.2
CC(C)COc1ccc(Cc2cnc(N)nc2N)cc1	4.0	10	-0.5	·	0.24*	1.2	28	·	·	·
C=CCn1c(SCC(N)=O)nc(C)cc1=O	·	-4	3.2	·	0.75	1.5	-5	·	·	·
Cc1cc(=O)[nH]c(NCc2ccccc2)n1	5.0	-6	1.3	i	0.66	-0.8	-14	5	3	0.5
COc1ccccc1N1C(=O)C(=O)N(C)C1=O	2.3	-6	0.7	i	0.71	-0.1	-6	2	6	-1.1
O=C(CSc1nc2c([nH]c3ccccc32)c(=O)n1-c1ccccc1)NCC1CCCO1 (centres undefined)	-0.2	-1	3.0	i	0.72	0.3	20	-16	-7	1.8
Cc1oc(-c2ccccc2F)nc1CS(=O)(=O)CC(=O)NCCN(C)C1CCCCC1	-10	-1	2.7	i	0.76	0.3	6	-6	-6	14
Cc1nc(Oc2cccc(Cl)c2)c2oc3ccccc3c2n1	·	6	3.9	·	0.73	-0.4	10	·	·	·
CN(c1ccc(C(=O)Nc2ccc(CC#N)cc2)cc1)S(C)(=O)=O	-1.2	-1	-0.4	i	0.7	-1.0	-4	12	9	1.6
CC1(c2ccc3noc(-c4ccc(F)cc4)c3c2)OCCO1	·	9	-7.0	·	0.72	0.5	-9	·	·	·
CCCC(O)(CCC)C(=O)NNc1ccc(C)cc1	·	7	0.5	i	0.61	1.1	15	5	3	-1.2
COc1ccc(C2/C=C\CN(S(=O)(=O)c3ccc4ccccc4c3)CC(=O)N2Cc2ccc(F)cc2)cc1 (centres undefined)	-2.8	2	4.4	i	·	-0.3	12	-1	-5	-7.9
CC(C(=O)NCc1ccccc1Cl)n1cc([N+](=O)[O-])cn1 (centres undefined)	-2.4	-5	0.4	i	0.66	-0.8	-6	8	15	0.4
CSc1nnc(-c2ccncc2)n1/N=C/c1cn(-c2ccccc2)nc1-c1ccc(Cl)cc1	2.3	3	·	i	·	-0.4	39	20	3	-1.0
CCOC(=O)N1CCC(n2c(SCC(=O)NCc3ccccc3)nc3ccccc3c2=O)CC1	·	7	1.9	·	0.66	0.5	18	·	·	·
CC1(C)CC(=O)C(C(C2=C(O)CC(C)(C)CC2=O)c2ccc([N+](=O)[O-])cc2)C(=O)C1 (centres undefined)	-25	-7	5.6	i	0.67	1.2	-9	0	5	-4.7
Cc1cc(C)c(S(=O)(=O)Nc2ccc(N(C)C)cc2)c(C)c1-n1cnnn1	9.2	3	-1.8	i	0.72	-0.2	18	-12	-14	11
O=C1/C(=C/c2cccc([N+](=O)[O-])c2)Oc2cc(O)ccc21	-3.7	9	6.6	i	0.69	-2.7	-11	16	15	9.5
Cc1ccc(Cl)cc1NC(=O)COC(=O)C1CCCCC1	·	-3	0.7	·	0.75	0.0	-4	·	·	·
CC(=O)NCCC(=O)Nc1nc(-c2c[nH]c3ccccc23)cs1	3.7	·	4.0	i	0.68	·	0	6	-3	-2.2
COc1ccc(C)cc1NC(=O)c1ccc(S(=O)(=O)N2CCOCC2)cc1	·	·	3.8	·	0.68	-0.6	-32	·	·	·
CC[C@H](C)[C@H](NS(=O)(=O)c1ccc(C)cc1)C(=O)N1CCC(C(=O)N[C@H](C(=O)O)C(C)C)CC1	9.4	-4	0.4	i	0.61	0.3	-3	11	-2	-4.7
CCOC(=O)[C@H]1[C@H]2COc3ccc(C)cc3[C@@H]2N2C(=O)CN(Cc3ccc(Cl)cc3)C(=O)[C@@]12C	-0.8	6	0.2	i	·	1.6	·	-1	2	-6.6
CN(C)S(=O)(=O)Oc1ccc(C(=O)Nc2cccc(Cl)c2)cc1	-0.9	4	0.1	i	0.62	-4.6	-5	-4	3	-1.9
COc1ccccc1-n1cc2c([N+](=O)[O-])cc([N+](=O)[O-])cc2n1	1.6	-11	5.0	i	0.66	0.2	-13	12	6	2.8
CCCOc1cccc(NC(=O)c2c(-c3ccccc3)noc2C)c1	·	-5	2.1	·	0.7	0.4	11	·	·	·
COc1cc2[nH]c(-c3ccc(C)cc3)cc(=O)c2cc1OC	4.3	-3	-22	i	0.65	-2.0	-3	7	5	2.5
Cc1cc(/C=C2/NC(=O)N(Cc3ccccc3F)C2=O)c(C)n1C(C)C	6.1	1	4.9	i	0.7	-0.2	57*	5	-5	0.3
CC1CC(C)CN(S(=O)(=O)CCNC(=O)c2ccc3c(c2)OCO3)C1 (centres undefined)	?	-6	4.2	i	0.7	-1.3	1	9	6	1.6
O=C(NC1CCCC1)C(=O)N(c1ccccc1F)C(C(=O)NCC1CCCO1)c1cccs1 (centres undefined)	-1.4	-5	2.8	i	0.7	0.7	-13	12	8	2.3
CCCOc1ccc(CN(C(=O)c2cccc(OC)c2)C2CCS(=O)(=O)C2)cc1 (centres undefined)	0.7	·	3.6	i	0.7	0.4	-4	-3	2	-0.3
COc1cc2c(cc1OC)-c1cc(Nc3ccc4c(c3)OCCO4)nc(=O)n1CC2	·	21	0.0	·	0.74	0.9	14	·	·	·
Cc1ccc(-c2csc(NNC(=O)c3ccccc3)n2)cc1	0.1	56	5.1	i	0.68	0.1	-37	·	·	·
c1ccc(COc2ccc(OCCCn3cncn3)cc2)cc1	·	1	4.3	·	0.69	-0.9	5	·	·	·
Cc1ccc(C(=O)/C=C/Nc2ccccn2)cc1	·	2	-6.0	·	0.72	-10	-17	·	·	·
Cc1cccc2cc3c(nc12)-c1ccccc1C3=O	-1.0	0	5.0	i	0.69	-0.3	13	0	6	2.4
COc1cccc(=O)c2c(C)n(-c3ccc(C(=O)O)cc3)c(C)c12	-0.8	-9	6.8	i	0.7	1.2	6	21	7	10

Continued, overlapping the part above by four compounds.
SMILES	AF4-AF9 inh	Beta apoptosis	UCH37 DUB inh	FGF22 binding	Ecoli growth	A1 inh	T cruzi inh	rRNA inh HTS	rRNA inh HTS OD600	rRNA inh HTS RFP
c1ccc(COc2ccc(OCCCn3cncn3)cc2)cc1	·	1	4.3	·	0.69	-0.9	5	·	·	·
Cc1ccc(C(=O)/C=C/Nc2ccccn2)cc1	·	2	-6.0	·	0.72	-10	-17	·	·	·
Cc1cccc2cc3c(nc12)-c1ccccc1C3=O	-1.0	0	5.0	i	0.69	-0.3	13	0	6	2.4
COc1cccc(=O)c2c(C)n(-c3ccc(C(=O)O)cc3)c(C)c12	-0.8	-9	6.8	i	0.7	1.2	6	21	7	10
O=C(O)c1ccc(Cl)c(NCc2cccs2)c1	0.5	-1	3.7	i	0.62	0.1	6	-13	-9	-0.6
CC(C)c1cc(-c2cc(-c3ccc(Cl)cc3)on2)nc(NCC2CC2)n1	-3.1	3	-1.2	i	0.64	0.0	-16	4	11	-3.3
O=C(COc1cccc2cccnc12)N1CCc2ccccc2C1	·	-6	1.8	·	0.62	-0.7	9	·	·	·
COc1ccc2c(c1)c(C(C)=O)c(C)n2C	3.5	-7	2.6	i	0.66	0.1	11	2	5	3.1
O=C(Nc1ncc(Cc2ccccc2)s1)C1CCCO1 (centres undefined)	-8.9	-7	3.3	i	0.67	-0.3	3	-2	-7	0.6
COc1cccc(NC(=O)C2CCC(CNC(=O)[C@@H]3Cc4ccccc4CN3)CC2)c1 (some centres undefined)	1.4	0	1.1	i	0.69	-1.0	-8	-5	6	-4.1
COc1ccc(-n2cc(-c3ccccc3)c3c(NCCCN4CCOCC4)ncnc32)cc1	14	-7	-0.1	i	0.71	0.0	-8	-56	-81	-23
N#Cc1ccc(NC(=O)COC(=O)CSc2nnc(-c3ccc(Cl)cc3)o2)cc1	-2.4	1	-0.6	i	0.64	-0.3	-4	-5	-27	-3.3
COc1ccc(/C(N)=N/OC(=O)c2ccc(OC)c([N+](=O)[O-])c2)cc1OC	-3.5	9	3.5	i	0.7	0.9	14	21	8	0.4
Cc1ccc(NC(=O)CC(C)S(=O)(=O)c2ccc3c(c2)NC(=O)CO3)cc1C (centres undefined)	-5.8	·	5.7	i	0.68	0.3	1	-2	1	-1.0
